# SARS PLpro yeast: SARS-CoV PLP inhibition in yeast; S. cerevisiae expressing SARS-CoV PLpro, growth rescue; control for the full effect not named in the record; Potency, µM (doses to about 32.9 µM), for inactives: top-dose activity, positive = growth rescue; 0.19% of 330,000 active; AID 485353; also: 0% is about no effect; nearly all actives have a fitted effect of over 55% in size; growth read by luminescence after 48 h
# NS1 inh: influenza NS1 inhibition; S. cerevisiae slowed by influenza A NS1, growth recovery by OD600; Potency, µM (highest dose often 46.1 µM), inactives show top-dose activity, positive = more growth; 0.4% of 270,000 active; AID 2326; also: actives are rising curves; nearly all actives have a fitted effect of over 50% in size
#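 A cell-based growth assay was used: compounds that relieve NS1-induced slow growth of budding yeast raise OD600. Assay medium was yeast nitrogen base with ammonium sulphate and -URA supplement, pH 6.0, with 2% galactose.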
# Numbers without * were called inactive; ? = inconclusive; [ ] = dose if it differs, or a comment. Calls follow the shape of the dose curve; as a rule, active means well fitted rising curve with a large enough effect; inconclusive means small, poorly fitted or top-dose-only effect; inactive means no such curve, though single readings can be large or run the other way. Potency is read from the fitted curve at half-maximal effect. A portion of the library; rates above refer to the full screens.
SMILES,SARS PLpro yeast,NS1 inh
CCCC[C@]12Cc3cc(OC)c(OC)cc3C(O1)C1=C(CC3(CCCCC3)OC1=O)O2,5.1%[6.58 µM],8.3%
Oc1ccc(N=Nc2ccc3c(c2)OCO3)c2ccccc12,-0.4%,-4.2%
Cc1nn(-c2ccccc2)c(C)c1-c1cc(C(=O)N/N=C/c2cccnc2)[nH]n1,-1.8%,6.4%
COc1ccc(CNc2cc(C)cc(C)c2)cc1OC,-1.9%,-7.6%
O=C(OCC(=O)N1CCN(c2ccccc2)CC1)c1cnc(Cl)c(Cl)c1,-10.2%,-14.2%
Cc1cc(NNC(=O)Nc2cccc(Cl)c2)nc2c1c(C)nn2C,-11.4%,0.8%
CCn1c(=N)c(S(=O)(=O)c2ccc(C)cc2)cc2c(=O)n3ccccc3nc21,-0.8%,3.2%
O=C(Cn1c(COc2ccccc2)nc2ccccc21)Nc1cc(Cl)c(Cl)cc1Cl,0.6%,-1.8%
CCc1nc(SCC#N)c(C#N)cc1C,-2.3%,-3.7%
C/C(=N\NC(=O)c1ccccn1)c1ccc(C(=O)O)s1,1.4%,0.2%
Cn1c(SCC(=O)NCc2ccccc2)nc2c([nH]c3ccccc32)c1=O,-0.4%,-0.3%
COc1ccc(NC(=S)N(C(C)C)C2CCN(C(C)C)CC2)cc1Cl,-1.6%,-2.2%
COc1cc(/C=C2/SC(=S)N(CC(=O)O)C2=O)ccc1OCC(=O)Nc1ccc(C)c(C)c1,2.1%,24.1%
CCOCC(=O)Nc1cc(Cl)c(OC)cc1OC,-2.9%,-5.3%
CC(C)Nc1ccc(Cl)cc1[N+](=O)[O-],-3.6%,2.9%
COc1ccc(OCc2nnc(SCC(=O)c3c(N)n(C)c(=O)n(C)c3=O)n2-c2ccccc2F)cc1,1.1%,1.7%
Cc1c(C(C)(C(=O)O)c2c(C)n(C)c3ccccc23)c2ccccc2n1C,1.2%,?
Cc1ccc(/C=N/NC(=O)c2c(-c3ccccc3)noc2C)c(O)c1,?,-82.7%
CC(C)(C)C#CC(CCc1ccccc1)OS(N)(=O)=O (configuration not stated),-2.5%,11.1%
O=C(NC(=S)NCc1ccco1)c1cccc(Cl)c1,-6.6%,-31.4%
O=C(Nc1ccccc1Cl)C1CC(=O)n2c(nc3ccccc32)N1 (configuration not stated),0.0%,7.1%
Cc1nc2ccccc2c(=O)n1/N=C/c1ccc([N+](=O)[O-])o1,-6.6%,-56.2%
CCn1c2ccccc2c2cc(NC(=O)Nc3ccc([N+](=O)[O-])cc3C)ccc21,0.3%,7.2%
COc1cccc(CC(NC(C)=O)C(=O)NC2CCN(c3c4c(nc5ncnn35)CCC4)CC2)c1OC (configuration not stated),0.6%,-1.0%
CC1=CC(=Nc2c(C)n(C)n(-c3ccccc3)c2=O)C=CC1=O,-0.5%,?
COc1ccc(CC(=O)NNC(=O)Cc2ccc(OC)cc2)cc1,0.3%,10.1%
CCN1CCN(CCOCCOc2ccccc2-c2ccccc2)CC1,-1.2%,3.3%
CN(C)CCNCCCOc1ccccc1-c1ccccc1,-0.6%,-2.9%
O=C(/C=C/c1ccco1)c1ccc(O)cc1,0.7%,-1.3%
O=C(O)c1cc(-c2c[nH]c3ccccc23)nc2cc3ccccc3cc12,-2.4%,6.4%
COCCNC(=O)c1cc(Sc2nnc(C)s2)nc2ccccc12,1.2%,-5.9%
C#CCOCCOCCOCCNc1nc(N2CCN(C(=O)[C@H](CCC(=O)O)n3cc(C(N)Cc4ccc(O)cc4)nn3)CC2)nc(N2CCN(C(=O)[C@H](CCCCN)n3cc(C(N)[C@H](C)CC)nn3)CC2)n1 (some centres not stated),-2.8%,3.3%
Cc1cc(C)nc(S/C=C/C(=O)c2ccc(F)cc2)n1,0.1%,-5.6%
COc1ccc(C2CC(=O)C(C(c3ccc(O)cc3)C3C(=O)CC(c4ccc(OC)cc4)CC3=O)C(=O)C2)cc1 (configuration not stated),5.7%,?
CCOc1ccc(S(=O)(=O)n2ccnc2C)cc1,2.5%,?
O=C1OCC2OC(O)C(O)C(O)C2OC(=O)c2cc(O)c(O)c(O)c2-c2c(O)c(O)c3oc(=O)c4c(c(O)c(O)c5oc(=O)c2c3c54)-c2c1cc(O)c(O)c2O (configuration not stated),?,1.5%
C/C(=C/CCC(C)C1CCC2(C)C3CCC4C(C)(C)C(=O)CCC4(C)C3=CCC12C)C(=O)O (configuration not stated),-7.2%,8.0%
O=C(Cn1nc(C(=O)O)c2ccccc2c1=O)Nc1ccc2c(c1)C(=O)c1ccccc1C2=O,0.5%,1.8%
COc1ccccc1N1CCN(C(=O)Cn2nc3n(C)c4ccccc4n3c(=O)c2=O)CC1,0.0%,-1.4%
CCOC(OCC)c1cn(Cc2ccc3c(c2)C(=O)c2ccccc2C3=O)nn1,14.5%,-140.2%

# Taken from above:
# Reading for `CCOC(OCC)c1cn(Cc2ccc3c(c2)C(=O)c2ccccc2C3=O)nn1` under NS1 inh: -140.2%
# Reading for `C#CCOCCOCCOCCNc1nc(N2CCN(C(=O)[C@H](CCC(=O)O)n3cc(C(N)Cc4ccc(O)cc4)nn3)CC2)nc(N2CCN(C(=O)[C@H](CCCCN)n3cc(C(N)[C@H](C)CC)nn3)CC2)n1` (some centres not stated) under NS1 inh: 3.3%
# Reading for `O=C(Cn1nc(C(=O)O)c2ccccc2c1=O)Nc1ccc2c(c1)C(=O)c1ccccc1C2=O` under NS1 inh: 1.8%
# Reading for `O=C1OCC2OC(O)C(O)C(O)C2OC(=O)c2cc(O)c(O)c(O)c2-c2c(O)c(O)c3oc(=O)c4c(c(O)c(O)c5oc(=O)c2c3c54)-c2c1cc(O)c(O)c2O` (configuration not stated) under NS1 inh: 1.5%

# Next part.
SMILES,SARS PLpro yeast,NS1 inh
CC12CCC3C(CC=C4CC(O)CCC43C)C1C/C(=C\N1CCCC1)C2=O (configuration not stated),-1.3%,-31.2%
O=C(NCCc1ccccc1)c1ccccc1NC(=O)C1CCCCC1C(=O)O (configuration not stated),10.3%,-0.6%
O=C(NCC(=O)N(c1cccnc1)C(C(=O)NC1CCCC1)c1ccc(F)cc1)c1ccco1 (configuration not stated),0.6%,?
Cc1ccccc1SCCNC(=O)CCc1ccccc1,-0.6%,-30.3%
C#CCOCCOCCOCCNc1nc(N2CCN(C(=O)[C@H]([C@@H](C)CC)n3cc([C@@H](N)Cc4ccc(O)cc4)nn3)CC2)nc(N2CCN(C(=O)[C@H](CCCCN)n3cc([C@@H](N)CC(C)C)nn3)CC2)n1,-1.1%,2.1%
COc1ccc(-c2[nH]ncc2CN(Cc2nccn2C)C(C)C)cc1F,0.7%,-0.7%
CC[C@@H]1CC=C[C@H]2[C@H]1C(=O)N(Cc1ccccc1)[C@H]2c1ccc2ccccc2c1,-12.3%,-58.0%
CNC(=O)c1c(NC(=O)c2ccc(S(=O)(=O)N3CCCC3)cc2)sc2c1CCN(C(C)C)C2,8.0%,?
CCc1ccc(C(C(=O)NC2CCCCC2)N(C(=O)c2ccccn2)c2cccnc2)cc1 (configuration not stated),-1.7%,1.8%
COc1cc2c(cc1OC)[C@@H]1O[C@](c3ccsc3)(C2)Oc2cc(C)n(-c3ccccc3)c(=O)c21,-1.0%[6.58 µM],-1.1%
Cn1c(=O)c2[nH]c(N3CCN(c4ccccn4)CC3)nc2n(C)c1=O,-0.7%,1.5%
CC1(C)[C@@H](O)CC[C@]2(C)C3C(O)C=C4[C@H]5C[C@@](C)(C(=O)O)CC[C@]5(C)CC[C@]4(C)[C@]3(C)CC[C@@H]12 (some centres not stated),-7.4%,-77.5%
CCOc1ccc(CCN2C(=O)C(=O)N([C@H](CCCN(C)Cc3ccccc3)CNCc3ccccc3)C[C@@H]2C(C)C)cc1,2.9%,3.4%
CCOC(=O)/C=c1\s/c(=C\c2sccc2C)c(=O)n1CC(=O)NCc1ccc(C)cc1,-0.5%,0.1%
O=C(NC(=O)c1ccccc1)Nc1ccccn1,0.4%,-13.3%
NC(=O)C(=CNc1nc(-c2ccc(Cl)c(Cl)c2)cs1)C(N)=O,2.1%,7.4%
C#CCOCCOCCOCCNc1nc(N2CCN(C(=O)[C@H](CCC(=O)O)n3cc(C(N)CO)nn3)CC2)nc(N2CCN(C(=O)[C@H](Cc3ccc(O)cc3)n3cc(C(N)CC(C)C)nn3)CC2)n1 (some centres not stated),-2.5%,4.6%
Cc1oc2c(c(C)cc3oc(=O)c(CC(=O)NCC(=O)NCC(=O)O)c(C)c32)c1C,2.4%,1.1%
c1ccc(Cc2ccc(OCCCNC3CCCC3)cc2)cc1,0.5%,?
Cc1nc(C2CCC3C4CCC5=CC(=O)CC[C@]5(C)C4CC[C@]23C)cs1 (some centres not stated),1.4%,10.8%
Cc1ccc(C(=O)NC(=S)N(C)C2CCCCC2)cc1Br,-11.4%,10.3%
C#CCOCCOCCOCCNc1nc(N2CCN(C(=O)[C@H](CCC(=O)O)n3cc(C(N)CO)nn3)CC2)nc(N2CCN(C(=O)[C@H](CCC(=O)O)n3cc(C(N)CC(C)C)nn3)CC2)n1 (some centres not stated),1.1%,1.7%
O=c1c2ccccc2c(C=Nc2ccc(S(=O)(=O)Nc3ncccn3)cc2)c(O)n1-c1cccc(Cl)c1,-0.2%,5.3%
COc1cc(/C=C(/C#N)c2nc(-c3cc4ccccc4oc3=O)cs2)cc([N+](=O)[O-])c1O,1.0%,2.5%
CCc1ccc(Nc2n[n+](C)c(-c3ccc(C(=O)O)cc3)s2)cc1,2.1%,-0.3%
COc1ccc(OCC(=O)NNC(=S)NC(=O)C2CCCCC2)cc1,6.5%,-51.7%
O=C(O)c1ccc(Nc2nc(-c3cccnc3)nc3ccccc23)cc1,0.2%,12.2%
Cc1c(CC(=O)N[C@@H](CCCNC(N)=O)C(=O)O)c(=O)oc2cc3oc4c(c3cc12)CCCC4,0.7%,10.3%
Cc1cc(/C=N/Nc2nc(N)ncc2[N+](=O)[O-])c(C)n1-c1cccc(C(F)(F)F)c1,-0.8%,1.4%
O=C(NCc1cccs1)c1cc(-c2ccncc2)nc2ccc(Br)cc12,-2.0%,-5.5%
CC1(C)S[C@@H]2[C@H](NC(=O)COc3ccccc3)C(=O)N2C1C(=O)OCc1cc2ccccc2n1S(=O)(=O)c1ccccc1 (some centres not stated),6.8%,19.8%
CCn1c(C)nc2cc(C(=O)NNC(=O)Nc3ccc(Cl)c(Cl)c3)ccc21,0.8%,0.2%
CCc1ccc(NC(=O)c2nc(S(=O)(=O)Cc3ccccc3)ncc2Cl)cc1,-44.2%,-21.4%
Cc1ccccc1NC(=O)c1ccc(Cl)c(NC(=O)c2cccnc2)c1,-2.0%,-0.7%
CCOC(=O)C1=C(C)N=C2SCCC(=O)N2C1c1ccc(OC)cc1 (configuration not stated),0.9%,5.1%
COc1cc2cc(Oc3ccc4ccc(=O)oc4c3)c(=O)oc2cc1OC(=O)C=C(C)C,0.3%,0.6%
CCOCC(=O)Nc1cc(C(=O)Nc2ccc(F)cc2)ccc1Cl,-1.1%,-0.7%
COc1ccc(-c2c(C)n([O-])c3c([n+]2=O)CCCC3)cc1OC,1.0%,3.9%
COC(=O)c1sccc1-c1ccc(C(N)=O)o1,-0.2%,-6.4%
Cc1ccnc(NS(=O)(=O)c2cc(C(F)(F)F)ccc2Cl)c1,-1.2%,6.5%
CC(C)c1ccc(S(=O)(=O)N2CCN(CC(=O)c3ccc(O)c(O)c3)CC2)cc1,-4.4%,-2.6%
COc1ccc2c(=O)c3c(=O)n(-c4ccc(C)cc4)c(-c4ccccc4)nc3oc2c1,-0.5%,1.1%
Cc1ccc(NC(=S)Nc2ccc(S(=O)(=O)Nc3ncccn3)cc2)cc1Cl,-0.8%,-3.5%
C=CCn1c(-c2ccc(=O)n(Cc3ccccc3)c2)n[nH]c1=S,0.2%,10.4%
CN(Cc1ccccc1NC(=O)c1ccc(S(=O)(=O)N(C)C)cc1)C1CCCCC1,1.5%,-1.2%
Cc1nc(C)c(C)nc1C,2.0%,7.3%
CCCCn1c(C)cc2c(c1=O)C1O[C@](CCCC)(Cc3cc(C#N)ccc31)O2,-0.4%[6.58 µM],21.0%
O=S(=O)([O-])CCC[n+]1c(/C=C\Nc2ccccc2)oc2ccc(-c3ccccc3)cc21,0.0%,4.7%
CCSCc1nnc(SCC(=O)Nc2nc(C)cs2)n1C,0.6%,-3.3%
O=C(C1=C[C@H](c2ccccc2)C[C@H](OCc2ccc(CO)cc2)O1)N1CCCCCCC1,-3.0%,0.1%

# Continued; the last two above are carried over.
SMILES,SARS PLpro yeast,NS1 inh
CCSCc1nnc(SCC(=O)Nc2nc(C)cs2)n1C,0.6%,-3.3%
O=C(C1=C[C@H](c2ccccc2)C[C@H](OCc2ccc(CO)cc2)O1)N1CCCCCCC1,-3.0%,0.1%
CCN1C(=NCC(C)C)N[C@@H](c2ccccc2)[C@H](C(=O)OC)[C@H]1C,-2.3%,-4.4%
O=C(Oc1ccccc1O)c1cccc2ccccc12,-1.8%,-37.9%
CCCc1nc2sc3c(=O)[nH]cnc3c2c2c1CCCC2,0.4%,4.6%
COc1ccc([C@]23Cc4ccccc4C(O2)c2c(cc(-c4ccccc4)oc2=O)O3)cc1,0.0%[6.58 µM],-26.8%
Oc1ccc(O)c(/C(=N/Nc2ccccc2)c2ccccc2)c1,6.4%,1.7%

# Nothing new here: six of the compounds above.
SMILES,SARS PLpro yeast,NS1 inh
O=C(C1=C[C@H](c2ccccc2)C[C@H](OCc2ccc(CO)cc2)O1)N1CCCCCCC1,-3.0%,0.1%
CCN1C(=NCC(C)C)N[C@@H](c2ccccc2)[C@H](C(=O)OC)[C@H]1C,-2.3%,-4.4%
O=C(Oc1ccccc1O)c1cccc2ccccc12,-1.8%,-37.9%
CCCc1nc2sc3c(=O)[nH]cnc3c2c2c1CCCC2,0.4%,4.6%
COc1ccc([C@]23Cc4ccccc4C(O2)c2c(cc(-c4ccccc4)oc2=O)O3)cc1,0.0%[6.58 µM],-26.8%
Oc1ccc(O)c(/C(=N/Nc2ccccc2)c2ccccc2)c1,6.4%,1.7%
